2A StopGo = lowers the luciferase signal of an FMDV 2A StopGo reporter. human cells with a luciferase reporter of 2A StopGo recoding; control for the full effect not named in the record. Potency, µM (top dose mostly 57.9 µM), for the others: at the top dose signal change, negative = less light. 410,000 tested, 1.2% active; active = well fitted falling curve with a large enough effect; inconclusive = small, poorly fitted or top-dose-only effect; inactive = no such curve, though single readings can be large or run the other way; tested in HEK293T cells; also: nearly all actives have a fitted effect of over 45% in size; luciferase light after 4 h
Lassa entry inh = blocks Lassa virus binding to or entry into cells. Lassa virus pseudotype entry inhibition, cell reporter; control for the full effect not named in the record. 300,000 tested, 1.2% active. Potency, µM (highest dose often 37.9 µM), inactives show at the highest dose activity change, negative = inhibition, actives largely listed as inhibitors; active means well fitted inhibition curve with a large enough effect; inconclusive means small, poorly fitted or top-dose-only effect, or effect the other way; inactive means flat fitted curve, though single readings scatter; tested in HEK293 cells; also: nearly all actives have a fitted effect of over 50% in size; luciferase read-out
Starred values were filed as active, the others as inactive; ? = inconclusive; [ ] = dose if it differs, or a comment. % is scaled to controls: 0 for no effect and ±100 for the full control effect; potency is read from the fitted curve at half-maximal effect.

SMILES	2A StopGo	Lassa entry inh
COc1ccc(Br)cc1CNC(=O)CN1C(=O)c2cccnc2Oc2ccc(C)cc21	-5%	?
CCCn1c2ccccc2c2cnn(CC(=O)Nc3cccc(C(=O)OCC)c3)c(=O)c21	-17%	0%[46.1 µM]
CC(C)CCNC(=O)Cn1c(-c2cccs2)cc2cc(F)ccc21	-7%	0%[46.1 µM]
CCOC(=O)Cc1ccc(NC(=O)N2CCSc3ccccc32)cc1	13%	-29%[46.1 µM]
Cc1ccc(CCNS(=O)(=O)c2ccc3c(c2)CC(C)N3C(=O)C2CCC2)cc1 (stereo not drawn)	54%[activator]	?
Cc1cccc(S(=O)(=O)c2cn(C)c3cc(N4CCC(C)CC4)c(F)cc3c2=O)c1	-4%	1%[46.1 µM]
CN(CC(=O)NCc1ccc(Cl)cc1)S(=O)(=O)c1ccc2[nH]c3c(c2c1)CCCC3	-15%	?
COc1ccc(-c2cn3nc(N4CCCC(C(=O)Nc5cc(C)cc(C)c5)C4)sc3n2)cc1 (stereo not drawn)	22%	19%[46.1 µM]
CC(C)c1ccc(S(=O)(=O)c2cnc(SCC(=O)Nc3ccc(F)cc3F)nc2N)cc1	?	?
CCN1CCN(c2cc3c(cc2F)c(=O)c(S(=O)(=O)c2cc(C)cc(C)c2)cn3CC)CC1	6%	4%[46.1 µM]
COC(=O)C(CCSC)NC(=O)Cn1ncc2c([nH]c3ccccc32)c1=O (stereo not drawn)	-8%	9%[46.1 µM]
CN(C(=O)C1CCN(c2ncnc3c2nc2n3CCCCC2)CC1)c1ccccc1F	-12%	-7%[46.1 µM]
CCn1cc(S(=O)(=O)c2cccc(Cl)c2)c(=O)c2cc(F)c(N3CCN(c4ccccc4)CC3)cc21	10%	-11%[46.1 µM]
CCCc1nc(SC)ncc1C(=O)Nc1ccc(Cl)cc1C(=O)c1ccccc1	12%	-3%[46.1 µM]
CCc1nc(SC)ncc1C(=O)N1CCN(c2cc(Cl)ccc2C)CC1	-25%	-1%[46.1 µM]
O=C(Cn1cnc2c(nc3n2CCCCC3)c1=O)Nc1ccc(F)cc1	0%	?
CC(C)Oc1ccc(CNC(=O)Cn2c(-c3cccs3)cc3ccccc32)cc1	?	-6%[46.1 µM]
O=C(Nc1ccccc1F)C(Cc1ccccc1)N1Cc2ccccc2C1=O (stereo not drawn)	6%	-14%[46.1 µM]
Cc1cc(Nc2cccc(Cl)c2)nc2ccc(NC(=O)Cc3ccc(Cl)cc3)cc12	-29%	-21%[46.1 µM]
Cc1ccccc1CSc1nc2cccnc2n1Cc1ccc(C(=O)NCCc2cccs2)cc1	10%	-3%[46.1 µM]
COc1ccc(Cl)cc1NC(=O)N1CCC(CN2CCc3ccccc3C2)CC1	5%	15%[46.1 µM]
CN(C)c1ccc(NC(=O)Cn2cc(S(=O)(=O)Cc3ccccc3Cl)c3ccccc32)cc1	13%	?
Cc1ccc(NC(=O)CSc2nnc(-c3cc4occc4n3C)n2-c2ccccc2C)c(Cl)c1	-3%	8%[46.1 µM]
CCOc1ccccc1CNC(=O)CN1C(=O)c2cccnc2Oc2ccc(Cl)cc21	-12%	-3%[46.1 µM]
CCOC(=O)c1c(NC(C)=O)c2c3c(sc2n1Cc1nc(-c2ccccc2C)oc1C)CCCC3	-6%	0%[46.1 µM]
CCOc1ccc(NC(=O)CN2C(=O)COc3ccc(S(=O)(=O)NC4CCCC4)cc32)cc1	21%	20%[46.1 µM]
Cc1ccc(-n2c(=O)c3c(c4cc(C)ccc4n3C)n(CC(=O)N3CCCC3)c2=O)cc1	-13%	-9%[46.1 µM]
Cc1ccc(Cl)cc1N1CCN(CCCNC(=O)Cn2ncc3c([nH]c4ccccc43)c2=O)CC1	0%	6%[46.1 µM]
COc1ccc(CSc2nc3ncccc3[nH]2)cc1	6%	?
COc1cc(Cl)c(NS(=O)(=O)c2ccc3c(c2)CC(C)N3C(=O)C2CCC2)c(OC)c1 (stereo not drawn)	?	?
CN1CCN(CCCNC(=O)Cn2c(-c3cccs3)cc3cc(Cl)ccc32)CC1	-13%	-23%[46.1 µM]
COC(=O)c1ccc(Cl)cc1NC(=O)N1CCC(CN2CCCC2)CC1	-1%	17%[46.1 µM]
CCOC(=O)C1=C(CN2CCN(c3ccccc3F)CC2)NC(=O)NC1c1ccc(OC)cc1 (stereo not drawn)	-25%	?
COc1ccc(-c2cn3nc(N4CCCC(C(=O)Nc5ccccc5F)C4)sc3n2)cc1 (stereo not drawn)	-27%	?
CCc1nc(SC)ncc1C(=O)Nc1ccc(Cl)cc1C(=O)c1ccccc1	10%	-3%[46.1 µM]
COc1ccc(Br)cc1CNC(=O)c1ccc(-n2c(C)cc3c2CCC(C)C3)cc1 (stereo not drawn)	-4%	?
O=C(NC1CCCCC1)c1ccc(Cn2c(SCc3ccc(F)cc3)nc3cccnc32)cc1	-1%	22%[46.1 µM]
CN(CCCNC(=O)Cn1ncc2c([nH]c3ccccc32)c1=O)Cc1ccccc1	-4%	-8%[46.1 µM]
COc1ccc(CNC(=O)CN2C(=O)CCCc3ccccc32)cc1	12%	0%[46.1 µM]
CCCCN(C)CCNC(=O)Cn1ncc2c3ccccc3n(CCC)c2c1=O	-17%	5%[46.1 µM]
CCCn1c2ccccc2c2cnn(CC(=O)NCC3CCN(Cc4ccccc4C)CC3)c(=O)c21	-18%	2%[46.1 µM]
COc1ccc(-c2noc(CSCC(=O)Nc3cc(OC)c(OC)c(OC)c3)n2)cc1OC	-9%	10%[46.1 µM]
COc1ccc(OC)c(Nc2ncnc3c2nc2n3CCCC2)c1	5%	?
COCCNC(=O)CN1C(=O)c2cccnc2Oc2ccc(Cl)cc21	4%	2%[46.1 µM]
Cc1ccc(O)c(NC(=O)COCc2cc(-c3ccco3)on2)c1	-8%	?
CCOc1ccc(CCNC(=O)Cn2ncc3c([nH]c4ccccc43)c2=O)cc1OCC	7%	8%[46.1 µM]
CCN1CCN(CCCNC(=O)Cn2c(-c3cccs3)cc3cc(Cl)ccc32)CC1	-10%	?
O=c1c(S(=O)(=O)c2ccccc2)cn(Cc2cccc(F)c2)c2cc(N3CCOCC3)c(F)cc12	-15%	?
Cc1ccc(NC(=O)C(c2ccccc2)N2Cc3ccccc3C2=O)cc1Cl (stereo not drawn)	33%[activator]	34%[46.1 µM]
Cc1ccc(NC(=O)c2ccc(CN3CC(=O)N4CCCCC4C3=O)cc2)c(Cl)c1 (stereo not drawn)	20%	8%[46.1 µM]
COc1cc(OC)c(NC(=O)C2=C(C)C(=O)OC23CCN(C(C)=O)CC3)cc1Cl	2%	3%[46.1 µM]
COc1cc(OC)c(NC(=O)C(c2ccccc2)N2Cc3ccccc3C2=O)cc1Cl (stereo not drawn)	13%	-20%[46.1 µM]
Cc1ccc(Nc2ncnc3c2nc2n3CCCC2)c(Br)c1	-31%	21%[46.1 µM]
CCOC(=O)C1CCN(C(=O)Cn2c(-c3cccs3)cc3cc(Cl)ccc32)CC1	-28%	-27%[46.1 µM]
CC(=O)c1ccc(NS(=O)(=O)c2cc3[nH]c(=O)c(=O)[nH]c3cc2C)cc1	-1%	10%[46.1 µM]
Cc1ccc(C)c(NC(=O)C(Cc2ccccc2)N2Cc3ccccc3C2=O)c1 (stereo not drawn)	?	-22%[46.1 µM]
O=C(COCc1cc(-c2ccc(F)cc2)on1)Nc1cc(Cl)cc(Cl)c1	-25%	-3%[46.1 µM]
Cc1cccc(C(=O)NC2=NC(c3ccc(Cl)cc3)CC(=O)N2)c1 (stereo not drawn)	4%	-15%[46.1 µM]
CN(Cc1ccccc1)c1ncnc2c1nc1n2CCCC1	8%	?
CCN1CCC(N(Cc2cccc(OC)c2)C(=O)Nc2cccc(C(F)(F)F)c2)CC1	-20%	-13%[46.1 µM]

Individual results from the results shown:
Under 2A StopGo, `CN(Cc1ccccc1)c1ncnc2c1nc1n2CCCC1` has the entry 8%
Under 2A StopGo, `O=C(COCc1cc(-c2ccc(F)cc2)on1)Nc1cc(Cl)cc(Cl)c1` has the entry -25%

(more compounds)
SMILES	2A StopGo	Lassa entry inh
Cc1cccc(S(=O)(=O)c2cn(Cc3ccccc3)c3cc(N4CCCCC4)c(F)cc3c2=O)c1	8%	-17%[46.1 µM]
CCN(C(=O)CSc1nnc(-c2cc3occc3n2C)n1-c1ccccc1C)c1cccc(C)c1	5%	12%[46.1 µM]
Cc1cccc2sc(N(CCCN(C)C)C(=O)COc3ccccc3)nc12	-17%	17%[46.1 µM]
NC(=O)C1CCN(C(=O)Cn2c(-c3cccs3)cc3ccccc32)CC1	-4%	-11%[46.1 µM]
COc1ccc(CCNC(=O)c2ccc(-n3c(C)cc4c3CCC(C)C4)cc2)cc1OC (stereo not drawn)	0%	?
CCN1CCc2c(sc(-n3cccc3)c2C(CCC(C)C)NC(=O)NCCC(=O)OC)C1 (stereo not drawn)	-2%	?
COc1cc(Cl)c(C)cc1Nc1ncnc2c1nc1n2CCCC1	18%	25%[46.1 µM]
CSc1ncc(C(=O)Nc2ccccc2C(F)(F)F)c(-c2ccccc2)n1	-14%	6%[46.1 µM]
Cc1cc(Nc2cccc(C(F)(F)F)c2)nc2ccc(NC(=O)c3cncc(Br)c3)cc12	32µM*	-19%[46.1 µM]
O=C(COCc1cc(-c2ccc3c(c2)OCO3)on1)Nc1cc(Cl)ccc1O	-10%	13%[46.1 µM]
COc1ccccc1CNC(=O)c1ccc(CN2CC(=O)N3CCCCC3C2=O)cc1 (stereo not drawn)	-6%	6%[46.1 µM]
COc1ccc(CCNS(=O)(=O)c2ccc3c(c2)CC(C)N3C(=O)C2CCC2)cc1OC (stereo not drawn)	-15%	-28%[46.1 µM]
CCCCN(CC)CCCNC(=O)C1CCCN(c2ncnc3c2nc2n3CCCCC2)C1 (stereo not drawn)	-10%	16%[46.1 µM]
CCCCn1cc(S(=O)(=O)c2ccc(OC)cc2)c(=O)c2cc(F)c(N3CCCC3)cc21	0%	18%[46.1 µM]
Cc1cc(NC(=O)COCc2cc(-c3ccc(F)cc3)on2)ccc1Br	-11%	9%[46.1 µM]
COCCCNC(=O)C1CCN(c2ncnc3c2nc2n3CCCCC2)CC1	27%	5%[46.1 µM]
O=C(NCc1ccc(Cl)cc1)C1CCN(c2ncnc3c2nc2n3CCCCC2)CC1	-11%	16%[46.1 µM]
O=C(Nc1cc(F)ccc1F)c1ccc(CN2CC(=O)N3CCCCC3C2=O)cc1 (stereo not drawn)	-16%	2%[46.1 µM]
COc1ccc(CN(C(=O)Nc2ccc(C)c(F)c2)C2CCN(C(C)=O)CC2)cc1	-22%	4%[46.1 µM]
CSc1ncc(C(=O)Nc2cc(Cl)ccc2C)c(-c2ccccc2)n1	-22%	2%[46.1 µM]
CCN1CCC(N(Cc2ccc3c(c2)OCO3)C(=O)Nc2ccc(Br)c(C)c2)CC1	-18%	-23%[46.1 µM]
CC1CCCN(c2cc3c(cc2F)c(=O)c(S(=O)(=O)c2cccc(Cl)c2)cn3Cc2ccccc2)C1 (stereo not drawn)	4%	6%[46.1 µM]
Cc1ccc(Cn2cc(S(=O)(=O)c3cccc(C)c3)c(=O)c3cc(F)c(N4CCOCC4)cc32)cc1	25%	-17%[46.1 µM]
CCc1cccc(NC(=O)CN(C)S(=O)(=O)c2ccc3[nH]c4c(c3c2)CCCC4)c1	-19%	-1%[46.1 µM]
Cc1cccc(Cn2c(SCc3ccc(C(=O)NCCc4ccccc4)cc3)nc3cccnc32)c1	-3%	?
O=C(Cn1ncc2c([nH]c3ccccc32)c1=O)Nc1cc(F)ccc1F	15%	-10%[46.1 µM]
CC(C)NC(=O)C(c1ccccc1)N1Cc2ccccc2C1=O (stereo not drawn)	8%	-1%[46.1 µM]
COc1ccc(CNC(=O)C(CC(C)C)N2Cc3ccccc3C2=O)cc1 (stereo not drawn)	-1%	-21%[46.1 µM]

Filtered by structure, the entries above with an aryl thioether with sulfur outside any ring (twelve)
SMILES	2A StopGo	Lassa entry inh
CC(C)c1ccc(S(=O)(=O)c2cnc(SCC(=O)Nc3ccc(F)cc3F)nc2N)cc1	?	?
CCCc1nc(SC)ncc1C(=O)Nc1ccc(Cl)cc1C(=O)c1ccccc1	12%	-3%[46.1 µM]
CCc1nc(SC)ncc1C(=O)N1CCN(c2cc(Cl)ccc2C)CC1	-25%	-1%[46.1 µM]
Cc1ccccc1CSc1nc2cccnc2n1Cc1ccc(C(=O)NCCc2cccs2)cc1	10%	-3%[46.1 µM]
Cc1ccc(NC(=O)CSc2nnc(-c3cc4occc4n3C)n2-c2ccccc2C)c(Cl)c1	-3%	8%[46.1 µM]
COc1ccc(CSc2nc3ncccc3[nH]2)cc1	6%	?
CCc1nc(SC)ncc1C(=O)Nc1ccc(Cl)cc1C(=O)c1ccccc1	10%	-3%[46.1 µM]
O=C(NC1CCCCC1)c1ccc(Cn2c(SCc3ccc(F)cc3)nc3cccnc32)cc1	-1%	22%[46.1 µM]
CCN(C(=O)CSc1nnc(-c2cc3occc3n2C)n1-c1ccccc1C)c1cccc(C)c1	5%	12%[46.1 µM]
CSc1ncc(C(=O)Nc2ccccc2C(F)(F)F)c(-c2ccccc2)n1	-14%	6%[46.1 µM]
CSc1ncc(C(=O)Nc2cc(Cl)ccc2C)c(-c2ccccc2)n1	-22%	2%[46.1 µM]
Cc1cccc(Cn2c(SCc3ccc(C(=O)NCCc4ccccc4)cc3)nc3cccnc32)c1	-3%	?

Screens as filed in PubChem BioAssay.

A portion of the library. The share of hits here may be higher or lower than overall.
